CBX7 inh – CBX7 inhibition, primary AlphaScreen | O95931 | AlphaScreen His6-CBX7 / biotin-H3K27me3 peptide binding; active compounds read low | normalised signal (fraction of DMSO) (concentration not given with the values) | hit rate 1.1% among 66,000; in the data active = normalised signal below about 0.5;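 note: 100 nL library stock added to about 20 µL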
Target sequence (O95931 whole entry, looked up): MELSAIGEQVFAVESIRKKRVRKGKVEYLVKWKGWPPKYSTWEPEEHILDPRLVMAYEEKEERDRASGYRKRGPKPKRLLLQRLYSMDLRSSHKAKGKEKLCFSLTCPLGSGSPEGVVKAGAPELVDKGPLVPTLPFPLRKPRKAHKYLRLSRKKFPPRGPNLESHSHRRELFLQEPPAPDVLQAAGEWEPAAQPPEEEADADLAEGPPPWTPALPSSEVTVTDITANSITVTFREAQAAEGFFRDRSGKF
CBX7 inh z-score – further read-out of CBX7 inh, marked with its call; z-score; measured here: z-score of CBX7 signal; some inactives read as strong as hits; reference of the scale not given here;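 same signal on another scale; lower means less binding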
Numbers without * were called inactive; ! = repeats disagree.

SMILES	CBX7 inh	CBX7 inh z-score
CCC(C(=O)Nc1ccccc1F)n1c(SCc2ccc(F)cc2)nc2ccncc21 (configuration not stated)	1	0.83
Cc1cc(C)n(-c2nc3ccccc3nc2NCc2ccc(F)cc2)n1	1.4	9.3
NS(=O)(=O)c1ccc(CCNC(=O)CCCCCn2c(=O)[nH]c3ccsc3c2=O)cc1	1	-0.0058
O=C(CCCN1C(=O)CSc2ncccc21)N1CCN(c2ccccn2)CC1	1	0.023
Cc1noc(/C=C/c2cccs2)c1S(=O)(=O)N1CCCC(C(=O)NC2CCCCC2)C1 (configuration not stated)	0.97	-0.58
CCC(=O)Nc1nc(C)c(-c2csc(Nc3ccc(C(=O)O)cc3)n2)s1	0.088*!	-1*!
N#Cc1ccc(-c2nc(-c3ccccc3)c(-c3cccs3)[nH]2)cc1	0.58	-0.42
COc1ccccc1C(=O)Nc1c(C(=O)Nc2cccc(F)c2)oc2ccccc12	1.1	1.2
Cc1cc(=O)n2[nH]cc(-c3ccc(Cl)cc3)c2n1	0.86	-2.6
CCOC(=O)c1cnc2c(C)c(Cl)ccc2c1NCCc1ccccc1	1.4	0.81
Cc1cccc(-c2nc(NCc3cccnc3)c3ccccc3n2)c1	0.83	-1.9
CCOC(=O)c1c(C)n(CCOc2ccccc2Cl)c2ccc(O)cc12	0.96	-1.1
Cc1ccn2c(NC(=O)c3ccc(Br)cc3)c(-c3ccccc3)nc2c1	1	-0.035
CC(=O)N1CCc2cc(S(=O)(=O)NC(Cc3ccccc3)C(=O)O)ccc21 (configuration not stated)	1.1	1.5
Cc1csc2ncc(C(=O)N(C)Cc3ccccc3)c(=O)n12	0.95	-0.73
CC(C)(C)NC(=O)C1CCCN1S(=O)(=O)c1cccc2cccnc12 (configuration not stated)	1	0.02
CCc1ccc(NS(=O)(=O)c2ccc3[nH]cc(C(=O)NCCC4=CCCCC4)c(=O)c3c2)cc1	0.99	-0.037
CC(C)=C1C2C=CC1C1C(=O)N(c3ccc(F)cc3)C(=O)C21 (configuration not stated)	0.89	-1.8
CC1CCN(c2c(NCc3ccc(C(=O)NC4CCCCC4)cc3)c(=O)c2=O)CC1	1.1	2.2
Cc1ccc2nc(-c3ccc(Cl)cc3)c(Nc3ccc4c(c3)OCCO4)n2c1	1	1.9

In a second layout: entries from further up.
mol | CBX7 inh | CBX7 inh z-score
CCC(C(=O)Nc1ccccc1F)n1c(SCc2ccc(F)cc2)nc2ccncc21 (configuration not stated) | 1 | 0.83
Cc1cc(C)n(-c2nc3ccccc3nc2NCc2ccc(F)cc2)n1 | 1.4 | 9.3
NS(=O)(=O)c1ccc(CCNC(=O)CCCCCn2c(=O)[nH]c3ccsc3c2=O)cc1 | 1 | -0.0058
O=C(CCCN1C(=O)CSc2ncccc21)N1CCN(c2ccccn2)CC1 | 1 | 0.023
Cc1noc(/C=C/c2cccs2)c1S(=O)(=O)N1CCCC(C(=O)NC2CCCCC2)C1 (configuration not stated) | 0.97 | -0.58
CCC(=O)Nc1nc(C)c(-c2csc(Nc3ccc(C(=O)O)cc3)n2)s1 | 0.088*! | -1*!
N#Cc1ccc(-c2nc(-c3ccccc3)c(-c3cccs3)[nH]2)cc1 | 0.58 | -0.42
COc1ccccc1C(=O)Nc1c(C(=O)Nc2cccc(F)c2)oc2ccccc12 | 1.1 | 1.2
Cc1cc(=O)n2[nH]cc(-c3ccc(Cl)cc3)c2n1 | 0.86 | -2.6
CCOC(=O)c1cnc2c(C)c(Cl)ccc2c1NCCc1ccccc1 | 1.4 | 0.81
Cc1cccc(-c2nc(NCc3cccnc3)c3ccccc3n2)c1 | 0.83 | -1.9
CCOC(=O)c1c(C)n(CCOc2ccccc2Cl)c2ccc(O)cc12 | 0.96 | -1.1
Cc1ccn2c(NC(=O)c3ccc(Br)cc3)c(-c3ccccc3)nc2c1 | 1 | -0.035
CC(=O)N1CCc2cc(S(=O)(=O)NC(Cc3ccccc3)C(=O)O)ccc21 (configuration not stated) | 1.1 | 1.5

(next part)
SMILES	CBX7 inh	CBX7 inh z-score
CCOC(=O)c1cnc2c(C)cc(C)cc2c1NCCc1ccc(OC)c(OC)c1	1	0.036
CCOc1ccc(-n2ccnc2SCC(=O)Nc2ccc3c(c2)OCCO3)cc1	0.59	-0.54
O=C(Nc1ccc(-c2nc3ccccc3o2)cc1)c1cncc(Br)c1	1.1	0.99
COc1cc(OC)cc(-c2nc3nc(C)c(CCC(=O)NC(C)C)c(C)n3n2)c1	1.1	0.34
CC(CC(=O)NCc1ccc(F)cc1)CC1=NS(=O)(=O)c2ccccc2N1 (configuration not stated)	0.99	-0.091
O=C(NCCCN1CCCCC1)c1cc(=O)[nH]c2ccc(S(=O)(=O)N3CCCC3)cc12	0.98	-0.18
CCOC(=O)c1c(NC(=O)CN2CCN(Cc3ccccc3)CC2)sc2c1CCN(C(=O)OCC)C2	1	1.5
CCc1nnc(NC(=O)CSc2nnc(-c3c[nH]c4ccccc34)n2C)s1	1.1	2.2
O=C(NCc1cccnc1)c1ccc(Cn2c(=O)[nH]c3ccsc3c2=O)cc1	1	0.13
CCC1=Nc2cc(C(=O)NC3CC3)ccc2Sc2ccc(C)cc21	1	0.91
COc1ccc(C(=O)Nc2ccc3oc(-c4cccc5c(Br)cccc45)nc3c2)cc1	1.1	4.6
CCN(C(=O)Cc1nc(N)n[nH]1)C1(C(=O)Nc2ccc(OC)cc2)CCCCC1	0.63	-6.7
CN(Cc1ccccc1)C(=O)c1ccc2c(c1)N(Cc1ccccc1F)C(=O)c1ccccc1S2	0.9	-2.5
O=C(Nc1ccc2nc(-c3ccc(Cl)cc3)[nH]c2c1)C12CC3CC(CC(C3)C1)C2	1.1	2.2
Cc1ccccc1-c1cc(C(=O)Nc2ccc(S(N)(=O)=O)cc2)c2ccccc2n1	0.93	-2.1
C=CCNC(=O)c1c[nH]c2ccc(S(=O)(=O)N(C)c3ccc(Cl)cc3)cc2c1=O	0.85	-1.7
NS(=O)(=O)c1ccc(CCNC(=O)c2cc(-c3cccs3)nc3ccccc23)cc1	1.2	1.4
COc1ccc(C2=NOC(C(=O)N3C(C)CCCC3C)C2)cc1 (configuration not stated)	1	0.15
CCOc1ccc2nc(N3CCC(C(=O)Nc4cc(C)ccc4C)CC3)sc2c1	1.1	2.1
CCOC(=O)c1ccc(NC(=O)c2c(NCc3ccncc3)sc3c2CCC3)cc1	1.1	1.2
CCc1ccc(-c2nc(-c3ccccc3OC)sc2CC(=O)O)cc1	0.94	-0.38
CCCCN(CC)CCNC(=O)CN1C(=O)COc2ccc(S(=O)(=O)N3CCCC3)cc21	0.98	-0.79
Cc1cccc(CCNC(=O)C2CCCN(S(=O)(=O)c3cccs3)C2)c1 (configuration not stated)	1	1.6
COc1ccc(N2CCN(CCCNC(=O)Nc3ccccc3)CC2)cc1	0.87	-1.4
Cc1ccc(-n2c(Cc3cccn3C)nnc2SCC(=O)Nc2cccc(C)c2C)cc1	0.86	-3.4
CC(=O)Nc1ccc(NC(=O)C2CC(=O)N(C3CCCCC3)C2)cc1 (configuration not stated)	1	1.8
COc1ccc(-c2cc(C(F)(F)F)nc(N3CCN(Cc4ccccc4)CC3)n2)cc1OC	1	0.19
CCOc1ccc2nc(N3CCCC(C(=O)NCCCN4CCCC4)C3)sc2c1 (configuration not stated)	0.97	-0.73
CCOc1cccc2sc(NC(=O)c3ccc(S(=O)(=O)N4CCCCCC4)cc3)nc12	1.1	1.7
COc1ccc(-c2cn3c(C)c(C(=O)Nc4cc(OC)ccc4OC)sc3n2)cc1	0.93	-1.1
CC(C)CNc1oc(-c2ccc(F)cc2)nc1C#N	1.1	0.68
O=[N+]([O-])c1ccc(-c2nc(-c3ccccn3)no2)cc1	0.97	-0.66
CCCC(=O)Nc1ccc2oc(-c3ccncc3)nc2c1	0.89	-1.3
CCOC(=O)c1c(C)n(C)c2ccc(OCC(O)CNc3cccc(C)c3C)cc12 (configuration not stated)	0.93	-3.2
COc1cccc(N2CCN(C(=O)c3ccc(NC4=NC5CS(=O)(=O)CC5S4)cc3)CC2)c1 (configuration not stated)	0.98	-0.39
Cc1ccc(NC(=O)C2(N3CCC4(CC3)OCCO4)CCCCC2)cc1	0.98	-0.45
COc1ccc2cc(CCNC(=O)c3c(F)cccc3Cl)c(=O)[nH]c2c1	1	0.69
c1cc2nncn2nc1N1CCN(C2CCCCC2)CC1	1	0.74
Cc1cccn2c(Nc3ccccc3)c(-c3ccccn3)nc12	0.87	-5.1
CC1(C)CC(=O)N(CC(=O)N2CCOCC2)c2ccccc2S1(=O)=O	1	1.3

Compound profiles, as listed above. Values in the order: CBX7 inh, CBX7 inh z-score
CCOC(=O)c1c(C)n(C)c2ccc(OCC(O)CNc3cccc(C)c3C)cc12 (configuration not stated) is entered as 0.93, -3.2
Cc1ccc(NC(=O)C2(N3CCC4(CC3)OCCO4)CCCCC2)cc1 is entered as 0.98, -0.45

Later entries.
SMILES	CBX7 inh	CBX7 inh z-score
Cc1nc2cc(NC(=O)c3ccc(S(=O)(=O)N4CCCCC4)cc3)ccc2s1	1.1	2.2
CC1CCN(c2nnc(NC(=O)Nc3ccc(Cl)cc3)s2)CC1	0.72	-1.1
COc1cc2c(C(=O)NCCCN3CCCC3)cn(C)c(=O)c2cc1OC	1.1	0.76
Cc1ccc(CN2CCN(CC(=O)NC3CCCCC3)C2=O)cc1	1.1	1.1
CCN(CC)S(=O)(=O)c1ccc2oc(C(=O)NCCc3ccccc3)c(C)c2c1	1	0.19
O=C(Nc1ccc2c(c1)nc1n2CCN(Cc2ccccc2)C1)c1ccccc1Cl	0.98	-0.045
CCN(C(=O)c1cn(CC(C)C)c(=O)c2cc(OC)c(OC)cc12)c1ccc(C)c(C)c1	0.99	-0.31
Cc1ccc(S(=O)(=O)N2CCC(C(=O)Nc3ccccc3C)CC2)cc1	1	1.6
Cc1ccc(C)c2[nH]c(=O)c(CCNC(=O)c3c(F)cccc3F)cc12	0.98	-0.54
COc1cccc(C2=NOC(C(=O)N3CCOCC3)C2)c1OC (configuration not stated)	1	1.5
COc1ccc(NC(=O)CCn2nc(-c3ccc(Cl)cc3)c3ccccc3c2=O)cc1C(N)=O	1.1	2.7
Cc1sc2ncn(CC(=O)Nc3ccccc3Cl)c(=O)c2c1C	1	0.45
COc1ccccc1CNC(=O)CN1C(=O)CC(C)(C)Sc2ccccc21	1.1	1.3
CCOc1ccc(-n2c(Cc3cc(=O)[nH]c(=O)[nH]3)nnc2SCC(=O)N2CCCCCC2)cc1	0.86	-2.1
Cc1csc2ncc(C(=O)N(Cc3ccccc3)Cc3ccccc3)c(=O)n12	0.97	-0.4
COc1ccccc1C(=O)Nc1ccc(S(=O)(=O)N2CCCCC2c2cccnc2)cc1 (configuration not stated)	0.95	-0.82
CCN1C(=O)c2ccccc2S(=O)(=O)c2ccc(C(=O)NC(C)c3ccccc3)cc21 (configuration not stated)	1	0.66
COc1ccc(-c2noc(-c3ccc(OC)c(OC)c3)n2)cc1OC	0.98	-0.5
Cc1ccc(C)c(N2CCN(C(=O)c3cn(C4CCCC4)c(=O)c4c3c3ccccc3n4C)CC2)c1	0.9	-2.4
CC(=O)N1CCc2cc(S(=O)(=O)NCCC(=O)Nc3ccc(F)cc3F)ccc21	0.9	-1.9
O=C(C1CC1)N1CCc2cc(S(=O)(=O)N3CCCCC3)ccc21	1	0.91
COC(=O)CNc1c(-c2ccccn2)nc2ccc(Br)cn12	0.063*	-1.6*
Fc1cccc(Cl)c1Cc1nc(Cc2ccccc2Cl)no1	0.94	-0.93
Cc1cc(C)c(NC(=O)c2cnn(-c3ccccc3)c2C2CCNCC2)c(C)c1	1	1.1
Cc1c(C(=O)Nc2ccncc2)sc2nc(-c3ccc(F)cc3)cn12	0.92	-1.6
COc1ccc(-c2c3c(nn2-c2ccccc2)CC(C)(C)CC3=O)cc1	0.82	-1.8
O=C(Nc1ccc(OC(F)(F)F)cc1)c1cc(C2CC2)on1	1.1	1.8
CCOc1ccccc1NC(=O)c1cnc2sccn2c1=O	0.88	-1.5
O=C(NCC1CCCO1)c1ccc2c(c1)N(Cc1cccc(F)c1)C(=O)c1ccccc1S2 (configuration not stated)	0.98	-0.52
COc1ccc(Cl)cc1-n1c(/C=C/c2cccc(OC)c2OC)nc2ccccc2c1=O	1.1	2.7
O=C(C1CC1)N1CCc2cc(S(=O)(=O)Nc3ccc4c(c3)OCCO4)ccc21	0.97	-0.34
CCN(CC)c1cc(C)c2cc(NC(=O)c3cccc(OC)c3)ccc2n1	1.1	0.92
CCc1ccc(-c2nc3cc(NC(=O)c4cccc(OC)c4)ccc3o2)cc1	1	0.33
Cc1ccc(-c2noc(Cc3ccc(Cl)cc3)n2)cc1	1.3	9.7
Cc1cc(NS(=O)(=O)c2ccc(Nc3nc(-c4ccccc4)cs3)cc2)no1	0.98	-0.59
COc1ccc(C2CC(c3ccc(-c4ccccc4)cc3)Nc3ncnn32)cc1 (configuration not stated)	0.86	-4.9
CCCCN(C)S(=O)(=O)c1ccc(C(=O)Nc2ccccc2-c2nc3ccccc3o2)cc1	1	0.85
Cc1ccc(NS(=O)(=O)c2cc(Br)cc3c2N(C(=O)C2CC2)CC3)cc1	1	-0.18
CCC(C)NC(=O)C1CCN(C(=O)c2cc3sccc3n2CC)CC1 (configuration not stated)	1	0.091
COCCNC(=O)c1cc(-c2ccc(Br)cc2)on1	1.1	0.11
O=C(Cn1cc2c(n1)CCCC2)Nc1ccc(F)cc1F	1.1	2.2
CCOc1ccccc1Nc1cc(C)nc2ccc(OC)cc12	1	0.17
O=C1c2cccnc2C(Nc2ccc(F)c(Cl)c2)N1Cc1ccc(F)cc1 (configuration not stated)	0.81	-2.5
COc1cccc(-c2cc(C(=O)NCCCn3ccnc3)no2)c1	0.97	-0.6
CC1CCC(NC(=O)C2c3cccn3CC(=O)N2CCc2ccccc2)CC1 (configuration not stated)	1	-0.076
CC1CCCCN1CCNC(=O)c1ccc2c(c1)ncn2C1CCCC1 (configuration not stated)	0.95	-1.1
CCn1cc(C(=O)Nc2ccc(OC)cc2OC)c2cc(OC)c(OC)cc2c1=O	1.1	0.85
CCOC(=O)c1ccc(NC(=O)C(=O)NCCc2ccc(OC)c(OC)c2)cc1	1	1.1
COc1ccc(N2CCN(c3cc(=O)n(-c4ccc(C)cc4)c(=O)[nH]3)CC2)cc1	1	0.9
Cc1ccc2c(c1)N(CC(=O)NCc1cccnc1)C(=O)CO2	1	0.13

High-throughput results from PubChem.

The list is partial; the hit share may differ from the screen's.
